Source: PubChem (Vanderbilt University)
GIRK2 activ – activators of human GIRK2 potassium channels; HEK293-GIRK2 thallium flux, Thallos fluorescence; calls only for hits at 25 µM; 63,000 tested, 0.05% active; AID 1259325;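 active = among the strongest 0.2% of first-round signals and kept after retests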;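 note: first round at about 10 µM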
Target sequence (P48051 whole entry, looked up): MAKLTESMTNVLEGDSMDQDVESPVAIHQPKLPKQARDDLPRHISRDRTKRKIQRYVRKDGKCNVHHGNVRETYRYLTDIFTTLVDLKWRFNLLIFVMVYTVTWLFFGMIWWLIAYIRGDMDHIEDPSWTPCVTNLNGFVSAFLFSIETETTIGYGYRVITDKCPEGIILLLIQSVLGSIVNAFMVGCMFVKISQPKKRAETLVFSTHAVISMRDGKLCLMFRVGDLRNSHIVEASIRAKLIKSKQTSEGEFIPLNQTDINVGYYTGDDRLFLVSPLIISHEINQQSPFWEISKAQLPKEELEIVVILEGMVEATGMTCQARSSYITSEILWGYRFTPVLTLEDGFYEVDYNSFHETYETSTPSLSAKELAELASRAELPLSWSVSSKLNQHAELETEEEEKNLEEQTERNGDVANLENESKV
Calls only; i = inactive.

GIRK2 activ	smiles
i	O=C(NCC(O)c1ccc2c(c1)CCO2)c1c(F)cccc1F (stereo not given)
i	Cn1nc(C(=O)NCc2cccs2)ccc1=O
i	CC(C)CC(C)N1Cc2ccccc2OCC1=O (stereo not given)
i	O=C(CNCc1ccco1)Nc1ncc(Cc2ccccc2Cl)s1
i	Cc1ccc2[nH]c3c(=O)n(CC(=O)N4CCN(Cc5ccccc5)CC4)cnc3c2c1
i	CCOCCCn1c2c(c(=S)[nH]c1=O)CCC2
i	Cc1ccc(N2CC(C(=O)NCC3CCS(=O)(=O)C3)CC2=O)cc1 (stereo not given)
i	O=C(Cc1ccccc1)NCC(Cc1cccc(F)c1)N1CCNC1=O (stereo not given)
i	COc1ccc(CNC(=O)Cn2nc3c(Sc4ccc(C)cc4C)nccn3c2=O)cc1
i	CCOc1ccccc1-n1ccnc(NCc2ccc(Cl)cc2)c1=O
i	Cn1cc(C(=O)Nc2ccc(F)cc2)c(S(=O)(=O)N2CCN(c3ccc(Cl)cc3)CC2)n1
i	O=C(NCc1ccc(OC(F)(F)F)cc1)C1COCC(=O)N1Cc1cccs1 (stereo not given)
i	Cc1ccc(S(=O)(=O)NC(C)C)c(C)c1N(C)S(=O)(=O)c1ccc(Cl)cc1
i	O=C(c1ccc(N2C(=O)CCC2=O)cc1)N1CCN(Cc2nc3ccccc3[nH]2)CC1
i	Cc1cccn2c(=O)c3cc(C(=O)NCC4CCCO4)n(Cc4ccccc4)c3nc12 (stereo not given)
i	O=S(=O)(Cc1ccccc1)NCc1ncc(-c2ccccc2)[nH]1
i	COc1cccc(Oc2nccn3c(=O)n(CC(=O)NC4CCCCC4)nc23)c1
i	O=c1[nH]c(CN2CCN(c3ccccc3)CC2)nc2ccccc12
i	CCCCS(=O)(=O)NCCc1nc(C)cc(C(F)(F)F)n1
i	CCOc1ccc(-c2nc(N)nc(C(F)(F)F)c2-c2ccccc2OC)c(O)c1
i	O=C(c1ccc2nsnc2c1)N1CCN(C(=O)C2CC2c2ccccc2)CC1 (stereo not given)
i	CS(=O)(=O)C1CCN(C(=O)Nc2ccccc2Cl)C1 (stereo not given)
i	O=C(CCc1c[nH]c2ccccc12)NCCCn1ncccc1=O
i	O=C(CS(=O)(=O)c1cccs1)Nc1ccccc1F
i	CCNC(=O)N1CCC(Cn2ccnc2C(C)C)CC1
i	Cc1ccc(-n2nnc(C(=O)Nc3ccc4c(c3)OCO4)n2)cc1
i	CSc1n[nH]c(=O)c2cc(-c3ccc(C)cc3)nn12
i	CCc1cnc2c(c1N1CCC(O)CC1)c(=O)n(C)c(=O)n2C
i	CCOC(=O)CCC(=O)N1CCCC(c2nnc(CC(C)(C)C)o2)C1 (stereo not given)
i	COc1ccc(S(=O)(=O)N2CCCCC2CCNC(=O)C(=O)Nc2ccc(F)cc2F)cc1 (stereo not given)

Of the compounds above, two have two or more sulfur atoms.
GIRK2 activ	smiles
i	Cc1ccc(S(=O)(=O)NC(C)C)c(C)c1N(C)S(=O)(=O)c1ccc(Cl)cc1
i	O=C(CS(=O)(=O)c1cccs1)Nc1ccccc1F

Additional results follow.
GIRK2 activ	smiles
i	CCC(=O)Oc1ccc2c(c1)O/C(=C\c1cccc(OC)c1)C2=O
i	CCOc1ccc(C(=O)N(CCc2cccs2)Cc2ccoc2)cc1
i	CCOC(=O)N1CCN(C(=O)CCn2c(=O)[nH]c3ccccc3c2=O)CC1
i	O=C(CSc1nccn2nc(-c3ccc(Cl)cc3)cc12)Nc1ncn[nH]1
i	CCCCCCCCCCCCCCCCCCCCCCCCCCCCCCO
i	O=C(c1ccc(=O)[nH]c1)N1CCC(Oc2ccc(C(F)(F)F)cn2)CC1
i	CCC(C(=O)NCCC(O)c1cccc2ccccc12)c1ccccc1 (stereo not given)
i	O=C(CCc1csc(NC(=O)c2ccco2)n1)NCc1cccs1
i	COC(=O)c1sccc1S(=O)(=O)NCCN1CCN(C(=O)c2cccs2)CC1
i	O=C(CSCc1ccccc1)N1CCN(Cc2nnnn2-c2ccc(Cl)cc2)CC1
i	CCN(C(=O)c1nc(SC)ncc1Cl)c1cccc(C)c1
i	COc1ccc(-c2cc(-c3cccs3)nc3sc(C(=O)N4CCOCC4)c(N)c23)cc1
i	O=C(C1c2ccccc2Oc2ccccc21)N1CCC2(CC1)OCCCO2
i	O=C(Cn1c(C2CCCO2)nc2ccccc21)NCc1cccs1 (stereo not given)
i	COc1ccc(CN2CC(O)=C(c3nc4ccccc4[nH]3)C2=N)c(OC)c1
i	CC(C)Sc1ccc(-c2nnc(NC(=O)NCc3ccc(F)cc3)o2)cc1
i	CCc1c(C#N)c(SCC(=O)Nc2cccc(OC)c2)nc2c1C(=O)CC(C)(C)C2
i	COC(=O)c1ccc2c(=O)n(CCC(=O)NCc3ccc(Cl)cc3)c(=S)[nH]c2c1
i	Cn1c(=O)n(CC(N)=O)c(=O)c2c1nc1n2CCCN1c1cccc(Cl)c1
i	Cn1c(-c2ccccn2)nn(CCNC(=O)c2ccsc2)c1=O
i	O=C(CSc1nccc(N2CCCCC2)n1)Nc1cccc(C(F)(F)F)c1
i	O=S(=O)(Nc1ccc(N2CCOCC2)cc1)C1CC1
i	Cc1ccc(C)c(NC(=O)CSc2ncccc2C(=O)O)c1
i	Cn1ccnc1SCC1CCN(C(=O)c2ccc(C(C)(C)C)cc2)CC1
i	CC(=O)c1ccc(N2CCN(C(=O)c3csc(Nc4ncccn4)n3)CC2)cc1
i	O=C(CCCS(=O)(=O)c1ccc(Cl)cc1)Nc1nnc(-c2ccc3c(c2)OCCO3)o1
i	Cc1ccc(-n2nnc(C(=O)Nc3ccc(F)c(F)c3)c2-c2cccnc2)cc1C
i	Cc1cc(C(=O)NCc2nn(CCN3CCCC3)c(=O)c3ccccc23)c(C)o1
i	CCOC(=O)c1ccc(Oc2cn[nH]c2-c2ccc(OCC(=O)NN)cc2O)cc1
i	CSc1ccc(/C=C2\C=C(CC(=O)N[C@H](C)c3ccccc3)c3cc(F)ccc32)cc1
i	COc1ccc(NC(=O)CSc2nc3c(oc4ccccc43)c(=O)n2Cc2ccco2)cc1
i	CSCC(C)(O)CNC(=O)CC(C)(C)C (stereo not given)
i	O=C(NCCc1ccccc1)NCCc1ccoc1
i	Cc1ccccc1Cn1c(=O)c2c(nc3n(CCOCCO)c(C)c(C)n23)n(C)c1=O
i	COC(=O)c1ccc(OC)c(NC(=O)C2CC(=O)Nc3nc4ccccc4n32)c1 (stereo not given)
i	O=C(COc1ccccc1)Nc1ccccc1-c1nc2ccccc2[nH]c1=O
i	C[C@@H](CC(=O)NC(=O)c1c[nH]c(/C=C/CCCCCCCCC(=O)O)cc1=O)C(=O)O
i	O=C(CSCc1ccccc1)NCCN1CCN(c2ccccc2F)CC1
i	Cn1cccc(C(=O)Nc2nc3c(s2)COCC3)c1=O
i	Cc1ccc(C)c(OCC(=O)Nc2ccc(N3CCOCC3)cc2)c1C
i	Cc1ccccc1OCC(=O)Nc1cc(C2CC2)nn1-c1nc2c(c(=O)[nH]1)CCC2
i	O=C(Cn1nc2c(c1NC(=O)C1CC1)CSC2)NCCc1ccccc1
i	O=C(NCc1ccccc1)c1cc2c(=O)n3ccccc3nc2n1Cc1ccccc1
i	O=C(C(c1ccccc1)n1cccc1)N1CCN(c2ncccn2)CC1 (stereo not given)
i	CC(=O)N1CCc2cc(S(=O)(=O)NCCn3ncccc3=O)ccc21
i	CCOc1ccc(C(=O)Nc2ccc3c(c2)CCC(=O)N3C)cc1OCC
i	O=C(CN1CCC(Cn2cnc3ccccc32)CC1)NCC1CCCO1 (stereo not given)
i	CCOC(=O)Cc1csc(NC(=O)CCC2NC(=O)c3ccccc3NC2=O)n1 (stereo not given)
i	O=C(NCC(O)c1ccoc1)c1cc2ccccc2o1 (stereo not given)
i	COCCCn1c(C(=O)NC2CCCCC2)cc2c(=O)n(C)c(=O)n(C)c21
i	Cn1cc(C(=O)NC2CCCCCCC2)c(S(=O)(=O)N2CCN(c3ccc(Cl)cc3)CC2)n1
i	CN(c1ccc(F)cc1)S(=O)(=O)c1ccsc1C(=O)Nc1ccc(OC(F)(F)F)cc1
i	CCn1c(=O)c(C(=O)Nc2cc(C)c(Cl)cc2OC)c(O)c2sccc21
i	Cc1csc(NC(=O)C(C)n2nc(C)ccc2=O)n1 (stereo not given)
i	CCSc1ccccc1NC(=O)c1nnn(-c2ccc(C)c(C)c2)c1C
i	COc1ccccc1N1CCN(CCNC(=O)c2cc(-c3ccc(F)cc3)nn2C)CC1
i	O=c1[nH]c(-c2ccccc2F)nc2c1Cc1cc(Cl)ccc1O2
i	Cn1cc(OCc2ccccc2)c(=O)cc1C(=O)Nc1ccccc1C(N)=O
i	CCOc1ccc2ccccc2c1C(=O)NCC1CCN(Cc2ccsc2)CC1
i	Cc1ccc(NC(=O)CSc2nc3ccccc3n3c(C)nnc23)c(Br)c1

Continued.
GIRK2 activ	smiles
i	O=C(Cn1cccc(-c2nc(-c3ccccc3)no2)c1=O)Nc1ccc(Cl)cc1
i	CCc1cccc(OCC(O)Cn2c(NCC(C)O)nc3c2c(=O)[nH]c(=O)n3C)c1 (stereo not given)
i	COc1ccc(C(=O)Nc2cc3c4c(c2)CCN4C(=O)CC3)cc1OC
i	COc1ccc(C(=O)CSc2cc(C)nc3c(-c4ccccc4)cnn23)cc1OC
i	N#Cc1ccc2[nH]cc(S(=O)(=O)c3cc(Cl)cc(Cl)c3)c(=O)c2c1
i	O=C(CCSc1ccccc1)NCC1(CO)CC1
i	CCCCN1C(SCC(=O)NCc2ccc(F)cc2)=NS(=O)(=O)c2ccccc21
i	Cc1ccnc(NC(=O)CN2CCN(c3ccc4c(c3)OCO4)C2=O)c1
i	CC(O)(CNC(=O)C(=O)Nc1ccc(F)c(F)c1)c1ccc2c(c1)OCO2 (stereo not given)
i	CCCCOc1ccc(C(=O)NCc2cc(-c3ccncc3)n(C)n2)cc1
i	CCOC(=O)/C(C#N)=C1\SC(Cc2ccc(Cl)c(Cl)c2)C(=O)N1c1ccc(F)cc1 (stereo not given)
i	Cc1ccc(Cl)cc1N1CCN(S(=O)(=O)c2nn(C)cc2C(=O)Nc2ccccc2)CC1
i	Cc1cc(NC(=O)CSc2nc3c(c(=O)[nH]2)CN(Cc2ccccc2)CC3)ccc1Br
i	Cc1ccc(NC(=O)c2cc(-c3cccc([N+](=O)[O-])c3)oc2C)c(C)c1
i	COCCN(Cc1ccoc1)C(=O)c1ccc(Cl)s1
i	Cc1nn(C)c(C)c1CCC(=O)NCCn1nc(-c2ccco2)ccc1=O
i	COc1ccc(OC)c2sc(N3CCN(C(=O)CCS(=O)(=O)Cc4ccccc4)CC3)nc12
i	COc1cccc2cc(C(=O)OC3CN(c4nc5c(C(F)(F)F)cccc5s4)C3)c(=O)oc12
i	CCOc1ccc(OCC)c(NC(=O)Cn2cc(-c3nc(-c4ccc(OC)cc4)no3)ccc2=O)c1
i	CCOc1cccc2cc(C(=O)Nc3ccc(S(=O)(=O)N4CCOCC4)cc3)c(=O)oc12
i	COCCn1cnc2c(-c3ccccc3)cn(CC(=O)Nc3cc(Cl)ccc3OC)c2c1=O
i	Cc1c(CNC(=O)/C=C/c2ccco2)sc2nc(-c3ccc(F)cc3)cn12
i	NC(=O)c1ccc2c(-c3ccnc(NCCCO)n3)c(-c3ccc(F)cc3)nn2c1
i	C=CCn1c(SCC(=O)Nc2ccccc2C)nc2nc(N3CCCCC3)sc2c1=O
i	NC(=O)CSc1nnc(Cn2ccc(=O)[nH]c2=O)o1
i	O=C(NCC(Cc1cccc(F)c1)N1CCCC1=O)c1ccccc1 (stereo not given)
i	COC(=O)c1ccc2c(=O)n(-c3ccc(F)c(Cl)c3)c(N3CCSC3)nc2c1
i	Cc1cccc(-c2nc(S(=O)(=O)c3ccccc3)c(NCCN3CCOCC3)o2)c1
i	Brc1ccc(-c2nc3n(n2)Cc2ccccc2-3)cc1
i	COc1ccccc1NC(=O)N1CCC2(CC1)NC(=O)c1cccc(Cl)c1N2

Sorted by molar mass (rising): some entries from above
GIRK2 activ	smiles
i	O=C(CCSc1ccccc1)NCC1(CO)CC1
i	CCCCOc1ccc(C(=O)NCc2cc(-c3ccncc3)n(C)n2)cc1
i	Cc1nn(C)c(C)c1CCC(=O)NCCn1nc(-c2ccco2)ccc1=O
i	COc1ccccc1NC(=O)N1CCC2(CC1)NC(=O)c1cccc(Cl)c1N2
i	Cc1ccc(Cl)cc1N1CCN(S(=O)(=O)c2nn(C)cc2C(=O)Nc2ccccc2)CC1
i	Cc1cc(NC(=O)CSc2nc3c(c(=O)[nH]2)CN(Cc2ccccc2)CC3)ccc1Br

A second format for some results above:
Molecule	GIRK2 activ
CCCCN1C(SCC(=O)NCc2ccc(F)cc2)=NS(=O)(=O)c2ccccc21	i
CCOC(=O)/C(C#N)=C1\SC(Cc2ccc(Cl)c(Cl)c2)C(=O)N1c1ccc(F)cc1 (stereo not given)	i
COc1cccc2cc(C(=O)OC3CN(c4nc5c(C(F)(F)F)cccc5s4)C3)c(=O)oc12	i
NC(=O)CSc1nnc(Cn2ccc(=O)[nH]c2=O)o1	i
Cc1ccc(NC(=O)c2cc(-c3cccc([N+](=O)[O-])c3)oc2C)c(C)c1	i

Further records follow.
GIRK2 activ	smiles
i	Cn1nc(C(=O)N2CCCC(c3nnc(-c4ccccc4F)s3)C2)ccc1=O (stereo not given)
i	CCC(O)CC1CCC(C(C)C(=O)OC(C)CC2CCC(C(C)C(=O)O)O2)O1 (stereo not given)
i	CCNC(=O)C1CCCN(c2nc3c(-c4cccc(OC)c4)csc3c(=O)[nH]2)C1 (stereo not given)
i	CCc1cnc2c(c1SCC(=O)Nc1cc(C(F)(F)F)ccc1Cl)c(=O)n(C)c(=O)n2C
i	CCNc1cc(NCCNC(=O)Cc2noc3ccccc23)nc(C)n1
i	O=C(c1cn(-c2cccc(F)c2)nn1)N1CCN(c2cccc(Cl)c2)CC1
i	CCCCCCCC/C=C\CCCCCCCC(=O)NCCc1ccc(O)c(O)c1
i	COCCN1N=C(C)C(C)n2c1nc1c2c(=O)n(CCC(C)C)c(=O)n1C (stereo not given)
i	Cn1c(CN2CCN(C(=O)c3cccs3)CC2)nc2ccccc21
i	O=C(CSc1nc2cc([N+](=O)[O-])ccc2s1)c1ccccn1
i	Cc1ccc(S(=O)(=O)N(C)c2ccsc2C(=O)NCc2ccc(F)c(Cl)c2)cc1

An excerpt (hit frequency here may not be typical).
